Screening results deposited in PubChem BioAssay by ICCB-Longwood Screening Facility, Harvard Medical School.
PV pol inh: poliovirus RdRp elongation inhibitors, primary screen, biochemical, fluorescence polarization, total intensity | % elongation, % (compound at 16.7 µg/mL) | poliovirus polymerase elongation; hits give low values | 150,000 compounds, 0.66% hits | AID 588519, 2011 | Genome polyprotein (Poliovirus type 1 (strain Mahoney)), P03300; in the data active means % elongation below about 90%; further: some results filed as inactive read as strong as hits
Target sequence (P03300 1749-2209 limits assumed): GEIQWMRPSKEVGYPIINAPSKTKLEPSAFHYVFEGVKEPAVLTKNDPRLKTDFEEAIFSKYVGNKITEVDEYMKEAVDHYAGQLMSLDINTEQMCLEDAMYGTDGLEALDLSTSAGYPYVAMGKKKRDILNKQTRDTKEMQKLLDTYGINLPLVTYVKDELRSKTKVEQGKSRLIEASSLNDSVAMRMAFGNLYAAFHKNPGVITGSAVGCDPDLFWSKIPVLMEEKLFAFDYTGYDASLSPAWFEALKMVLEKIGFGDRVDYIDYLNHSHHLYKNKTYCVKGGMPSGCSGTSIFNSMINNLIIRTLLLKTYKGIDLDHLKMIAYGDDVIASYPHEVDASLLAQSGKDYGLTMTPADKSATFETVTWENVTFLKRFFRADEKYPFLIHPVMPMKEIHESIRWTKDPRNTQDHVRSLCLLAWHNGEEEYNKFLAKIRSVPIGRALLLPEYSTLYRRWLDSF
MbtI inh: MbtI salicylate synthase inhibitors, primary screen, biochemical, fluorescence intensity; P9WFX0; purified MbtI enzyme, fluorescence intensity read-out; AID 493033, 2011; 100,000 compounds, 0.89% hits; inhibition, %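 (about 17 µg/mL by stock and volumes)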;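 active means above 50% in both replicates, above 80% if mildly self-fluorescent; inactive means the rest, strongly fluorescent compounds included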;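 further: 0% = mean of negative and 100% = mean of positive controls; one replicate is shown; some compounds called inactive have numbers as strong as hits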
Target sequence (P9WFX0 whole entry, looked up): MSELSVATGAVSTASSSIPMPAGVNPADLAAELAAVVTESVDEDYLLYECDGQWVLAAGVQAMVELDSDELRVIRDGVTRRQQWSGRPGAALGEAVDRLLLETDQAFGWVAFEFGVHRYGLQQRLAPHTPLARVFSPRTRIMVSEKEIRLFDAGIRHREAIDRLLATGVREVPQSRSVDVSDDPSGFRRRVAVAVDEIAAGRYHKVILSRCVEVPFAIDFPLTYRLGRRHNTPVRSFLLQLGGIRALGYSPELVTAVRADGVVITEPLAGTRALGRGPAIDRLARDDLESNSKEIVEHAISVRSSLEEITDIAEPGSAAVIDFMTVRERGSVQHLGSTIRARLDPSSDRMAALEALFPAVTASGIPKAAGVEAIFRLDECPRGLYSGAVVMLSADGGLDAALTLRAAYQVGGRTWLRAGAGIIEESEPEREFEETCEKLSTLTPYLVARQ
MenB inh: M. tuberculosis MenB inhibitors, primary screen, biochemical, absorbance. 100,000 compounds, 0.43% hits. MenB enzyme assay, absorbance read-out; some hits fall short of the stated cut. inhibition, %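 (about 12 µg/mL by stock and volumes)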;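 active means mean of two replicates above 30%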;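 further: 0% = no compound and 100% = wells with inactive enzyme; the first replicate is given; strong numbers were not always called active; inactives centre near -10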
PV pol inh intensity: recorded beside PV pol inh, whose call it bears; % elongation; measured here: total intensity read-out; formula for this scale not given here;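 total fluorescence in place of polarization; lower means less elongation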
Starred values were filed as active, the others as inactive; x = not tested or not shown. Not a hit list. About 1.8% of those tested had a hit in this group.

item	canonical_smiles	PV pol inh	PV pol inh intensity	MbtI inh	MenB inh
1	NS(=O)(=O)c1ccc(-c2ccc(C=C3C(=O)NC(=S)NC3=O)o2)cc1	107	115	48	-21
2	Oc1cccc(NCC(O)Cn2ccc3ccccc32)c1 (configuration not stated)	102	103	-2	-2
3	O=S1(=O)CC(NCc2ccccc2)C(Nc2ccccc2)C1 (configuration not stated)	104	105	0	-11
4	N#Cc1c(N)nc(Sc2ccc(Cl)cc2)c(C#N)c1-c1ccccc1	106	110	-11	-6
5	O=C(Nc1ccccc1Cl)c1cc2ccccc2oc1=O	102	108	-11	-2
6	CC(=O)Oc1cc(C)c2c(=O)c(-c3csc(C)n3)coc2c1	104	104	-11	-158
7	Cc1c(C)c(C)c(C#CCO)c(C)c1C	101	99	-1	-11
8	O=C(O)c1cccc(S(=O)(=O)NCC(F)(F)F)c1	95	98	14	-11
9	N#Cc1c(NCc2ccccc2)ncc2c1Nc1ccccc1C2	71	194	-55	-26
10	CC1CCCCN1C(=O)c1ccc(C(=O)c2ccccc2)cc1 (configuration not stated)	101	101	-14	-24
11	O=C(c1csc(Nc2cccc3ccccc23)n1)N1CCCCC1	100	114	x	3
12	CCOC(=O)c1cc(CSc2n[nH]c(=O)n2-c2ccccc2)on1	101	99	8	-7
13	NC(=O)c1ccc(N2CCCCC2)c(N2C(=O)C3CC=CCC3C2=O)c1 (configuration not stated)	100	100	-4	-59
14	O=C(COC(=O)CC1CCS(=O)(=O)C1)Nc1ccc(F)cc1 (configuration not stated)	104	103	-11	-9
15	CS(=O)(=O)c1cccc(C(=O)NCc2ccccc2)c1	107	110	20	-12
16	COc1ccc(Cl)cc1CC(=O)O	100	89	-6	-17
17	COC(=O)c1ccc(OC(=O)/C=C/c2cccn2C)cc1	95	95	-4	-15
18	COc1ccc(S(=O)(=O)N2CCN(C(C)C(=O)NCc3ccccc3)CC2)cc1 (configuration not stated)	x	x	-7	-26
19	CC1CN(c2nn(C)c(=O)n(C)c2=O)CC(C)O1 (configuration not stated)	104	88	-4	-18
20	CCN(Cc1ccc2c(c1)OCCO2)C(=O)c1c(F)cccc1F	102	109	-7	-5

Overlap with the part before: two entries, then new ones.
item	canonical_smiles	PV pol inh	PV pol inh intensity	MbtI inh	MenB inh
19	CC1CN(c2nn(C)c(=O)n(C)c2=O)CC(C)O1 (configuration not stated)	104	88	-4	-18
20	CCN(Cc1ccc2c(c1)OCCO2)C(=O)c1c(F)cccc1F	102	109	-7	-5
21	O=C1NC(=S)N/C1=C\c1cccc(OCc2ccc(F)cc2)c1	116	123	x	-17
22	Nc1ccc(Oc2ccccc2)cc1	102	97	0	-39
23	CC(=O)N1CCN(c2ccc(OCC3CO[C@](Cn4ccnc4)(c4ccc(Cl)cc4Cl)O3)cc2)CC1 (some centres not stated)	99	101	-11	3
24	Cc1oc2ncn(CC(C)C)c(=O)c2c1C(=O)NC1CC1	102	103	-20	3
25	CCN(CCO)C(=O)c1ccc(C(C)(C)C)cc1	102	109	-12	x
26	CCN1C(=O)S/C(=C/c2cc(Br)c(OCC(=O)O)c(OC)c2)C1=O	99	101	1	-10
27	Cc1ccc(-c2nnc(Nc3ccccc3)c3ccccc23)cc1S(=O)(=O)NC(C)(C)C	101	98	11	-40
28	Cc1ccc(C)c(-n2nnnc2SCC(=O)OCC(=O)Nc2ccccc2C)c1	105	101	0	3
29	COc1ccc(NC(=O)CC#N)cc1OC	104	104	0	x
30	CC(C)=CC(=O)Nc1ccc2c(c1)OCCO2	101	104	1	-7
31	CCCc1nn(-c2ccccc2)c2c1C(c1ccc(OC)cc1)C(C#N)=C(N)O2 (configuration not stated)	103	108	-2	-1
32	Cn1c(=O)oc2cc(S(=O)(=O)CCC(=O)NC3CCN(Cc4ccccc4)CC3)ccc21	99	103	-6	3
33	CCCCCCCC1CC(CSc2ncn[nH]2)OC1=O (configuration not stated)	105	103	-3	-25
34	N#CCSc1nnc(-c2ccc(Br)cc2)n1C1CCCCC1	115	120	-14	-10
35	CCCNS(=O)(=O)c1cc2c3c(c1)C(C)C(=O)N3CCC2 (configuration not stated)	107	98	1	-11
36	CCC(c1nnc(Sc2nc(C)nc3sc4c(c23)CCCC4)n1CCN1CCOCC1)N(C)C (configuration not stated)	105	105	8	-16
37	O=C(O)c1c(CNCc2cccnc2)c2ccccc2n1Cc1ccccc1	104	105	10	-16
38	CC(=O)N1CCN(c2nc(-c3ccccc3)c3ccccc3n2)CC1	98	100	1	-10
39	c1ccc(Sc2ncnc3sc4c(c23)CCCC4)cc1	99	108	x	6
40	CCC(=O)N/N=C/c1ccc(-c2ccc(Cl)cc2)o1	101	103	-113	-24

Part of the list above, reduced to MenB inh, MbtI inh and PV pol inh intensity.
No. | SMILES | MenB inh | MbtI inh | PV pol inh intensity
28 | Cc1ccc(C)c(-n2nnnc2SCC(=O)OCC(=O)Nc2ccccc2C)c1 | 3 | 0 | 101
32 | Cn1c(=O)oc2cc(S(=O)(=O)CCC(=O)NC3CCN(Cc4ccccc4)CC3)ccc21 | 3 | -6 | 103

Continuation:
item	canonical_smiles	PV pol inh	PV pol inh intensity	MbtI inh	MenB inh
41	O=C1c2ccccc2-c2nc(=O)c3c4c(sc3n21)CCCC4	100	103	7	0
42	O=C(C1c2ccccc2C(=O)N2CCc3ccccc3C12)N1CCN(Cc2ccccc2)CC1 (configuration not stated)	104	102	-10	-29
43	Cc1ccc(C(=O)OCC(=O)N2CCCC2)c(O)c1	99	101	-52	-10
44	NC(=O)c1nnn(-c2ccccc2)c1N	103	97	66	x
45	COc1ccccc1NC(=O)c1c(N)n[nH]c1C	99	102	21	7
46	CC(C)CN(CC(C)C)C(=O)CSc1ncn[nH]1	101	102	-6	-29
47	CN(C(=O)CSc1nnc(C(F)(F)F)n1N)C1CCS(=O)(=O)C1 (configuration not stated)	102	103	-10	-16
48	Cc1ccc(C2=NN=C(NC(=O)CSc3nnc(C)s3)SC2)cc1	99	99	84*	8
49	CCN(Cc1ccccc1)/C(=N/O)c1ccc(OC)cc1	108	112	-7	-3
50	COCCNC(=O)c1ccc(CS(=O)(=O)c2ccc(OC)cc2)o1	99	102	6	-20
51	O=C1NCN(c2ccccc2)C12CCN(c1nnnn1-c1ccccc1)CC2	99	102	1	42
52	Cc1ccccc1-n1c(SCCc2ccccc2)nc2ccccc2c1=O	104	106	0	-22
53	CNS(=O)(=O)c1cccc(C(=O)O)c1	99	104	-14	-49
54	COc1ccc(C2CC(=O)NN2)cc1OC1CCCC1 (configuration not stated)	104	101	18	0
55	OCc1ccccc1CNC1CCCCC1	109	111	x	-12
56	O=C(NC12CC3CC(CC(C3)C1)C2)c1cccs1	103	106	-9	x
57	O=C(CN1CCCCC1)N1CCCc2ccccc21	102	102	-8	11
58	O=C(CCSc1ccccc1)NC12CC3CC(CC(C3)C1)C2	103	106	-14	-16
59	CCN(C(=O)c1cc2cc3ccc(C)cc3nc2s1)c1ccc(C)c(C)c1	105	108	1	-13
60	Nc1ncc(N=Nc2cccc(C(F)(F)F)c2)s1	106	112	-7	-89

An excerpt from above in order of SMILES length, falling.
item	canonical_smiles	PV pol inh	PV pol inh intensity	MbtI inh	MenB inh
42	O=C(C1c2ccccc2C(=O)N2CCc3ccccc3C12)N1CCN(Cc2ccccc2)CC1 (configuration not stated)	104	102	-10	-29
59	CCN(C(=O)c1cc2cc3ccc(C)cc3nc2s1)c1ccc(C)c(C)c1	105	108	1	-13
51	O=C1NCN(c2ccccc2)C12CCN(c1nnnn1-c1ccccc1)CC2	99	102	1	42
48	Cc1ccc(C2=NN=C(NC(=O)CSc3nnc(C)s3)SC2)cc1	99	99	84*	8
41	O=C1c2ccccc2-c2nc(=O)c3c4c(sc3n21)CCCC4	100	103	7	0
58	O=C(CCSc1ccccc1)NC12CC3CC(CC(C3)C1)C2	103	106	-14	-16
40	CCC(=O)N/N=C/c1ccc(-c2ccc(Cl)cc2)o1	101	103	-113	-24
49	CCN(Cc1ccccc1)/C(=N/O)c1ccc(OC)cc1	108	112	-7	-3
56	O=C(NC12CC3CC(CC(C3)C1)C2)c1cccs1	103	106	-9	x
46	CC(C)CN(CC(C)C)C(=O)CSc1ncn[nH]1	101	102	-6	-29
54	COc1ccc(C2CC(=O)NN2)cc1OC1CCCC1 (configuration not stated)	104	101	18	0
45	COc1ccccc1NC(=O)c1c(N)n[nH]c1C	99	102	21	7
57	O=C(CN1CCCCC1)N1CCCc2ccccc21	102	102	-8	11
53	CNS(=O)(=O)c1cccc(C(=O)O)c1	99	104	-14	-49
44	NC(=O)c1nnn(-c2ccccc2)c1N	103	97	66	x
55	OCc1ccccc1CNC1CCCCC1	109	111	x	-12

More structures
item	canonical_smiles	PV pol inh	PV pol inh intensity	MbtI inh	MenB inh
61	O=C(Oc1ccnc2cc(Cl)ccc12)N1CCCCC1	101	103	-3	16
62	Cc1ccnc(SCC(=O)c2cccs2)n1	99	100	13	7
63	CCOC(=O)c1ccccc1NC(=O)c1ccc(N2CCCC2=O)cc1	106	109	0	7
64	Cc1cccc(-c2noc(CCC(=O)NC(C)(C)C)n2)c1	103	96	-4	-29
65	Cc1nc2cc(N3CCN(C)CC3)c(NC(=O)C(C)(C)C)cc2c(=O)n1Cc1ccccc1	103	103	-2	-16
66	CCOCCC(=O)Nc1ccccc1Sc1ccccc1	100	103	-4	-24
67	Cc1nc(C(=O)NCC(=O)c2ccc(Cl)cc2)c(C(F)(F)F)o1	98	102	-12	-13
68	CCOC(=O)C(CC)Sc1nnc(-c2ccccc2Br)n1C (configuration not stated)	106	102	-7	-14
69	Cc1ccc(NC(=O)CSC(=N)N)cc1	102	103	12	1
70	Cc1cc(C)c2nc(N3CCCN(C(=O)c4ccco4)CC3)c(C#N)cc2c1	99	105	96	-11
71	O=C(N/N=C/c1ccc(-c2ccc(S(=O)(=O)Nc3ncccn3)cc2)o1)C12CC3CC(CC(C3)C1)C2	100	97	-128	13
72	COc1ccc(Nc2cc(C(=O)NC3CCCCC3)c3ccccc3n2)c(OC)c1	104	98	14	3
73	O=C(CCC(=O)c1ccccc1)Nc1cccnc1	103	104	-4	-25
74	CC(=O)N1CCSc2cc(S(=O)(=O)Nc3cccc(C)c3)ccc21	101	105	-1	-25
75	Cc1cc(CNC(=O)COC(=O)C2CC3CCCC(C2)C3=O)cc(C)c1O (configuration not stated)	107	105	-9	3
76	O=C(O)CN1C(=O)/C(=c2/sc3nc4ccccc4n3c2=O)c2cc(Br)ccc21	102	94	-10	-2
77	OCCn1c(-c2ccc(-c3ccccc3)cc2)csc1=Nc1ccccc1	100	104	x	-25
78	O=C(Cn1cnc2sccc2c1=O)NC(=O)NC1CCCC1	118	130	2	4
79	COC(=O)c1cc(C)nc2c1c(=O)n(C)c(=O)n2C	100	102	117	8
80	Cc1cc(C(=O)C(C)OC(=O)CN2CCSC2=O)c(C)n1-c1ccc(Cl)cc1 (configuration not stated)	93	94	1	-30

item	canonical_smiles	PV pol inh	PV pol inh intensity	MbtI inh	MenB inh
81	CC1CCCCN1C(=O)CSc1nc2ccccc2[nH]1 (configuration not stated)	100	104	0	15
82	O=C(NCC1CCCO1)c1ccc(F)c(F)c1 (configuration not stated)	103	106	x	-12
83	CC1Cc2cc(C(=O)NCC(c3ccco3)N3CCCC3)ccc2N1S(C)(=O)=O (configuration not stated)	101	99	5	-18
84	CNC(=O)c1ccc(C(C)(C)C)cc1	109	111	x	-6
85	O=C(Nc1ccccc1C(=O)NCCc1ccccc1)c1ccno1	104	103	77	-32
86	CC(C)(C)c1cc2oc3c(c2c(C=NCc2ccncc2)c1O)CCCC3	100	107	-8	-20
87	CCOC(=O)c1c(C)oc2c1c(C=NCCCN1CCOCC1)c(O)c1ccccc12	99	98	13	-8
88	CC(=O)Nc1nc(-c2cccs2)nc2c1c(=O)oc1ccccc12	102	100	-12	-16
89	COc1ccc(C2C(C(=O)N3CCN(c4ccc(OC)cc4)CC3)c3ccccc3C(=O)N2C)cc1 (configuration not stated)	101	102	-3	-11
90	CC(C)C(NS(=O)(=O)c1ccccc1)C(=O)Nc1ccccc1 (configuration not stated)	104	104	-8	-26
91	CC(=O)Nc1cccc(N2C(=O)C=CC2=O)c1	105	102	96*	-58
92	CN(CCOc1ccccc1)CC(=O)Nc1cccc(C#N)c1	100	90	-1	-28
93	CCOc1ccc2[nH]cc(C(=O)O)c(=O)c2c1	108	103	x	13
94	Cc1cc(C)cc(NC(=O)COC(=O)c2ccc(F)cc2F)c1	103	107	-8	x
95	COc1ccccc1NC(=O)c1oc2ccccc2c1NC(=O)Cc1cccc(C)c1	102	97	26	-40
96	Cc1ccc(NC(=O)CSc2nc3c(oc4ccccc43)c(=O)n2Cc2ccc(F)cc2)c(C)c1	107	97	12	4
97	CC(=O)Nc1ccc(CCc2nc3ccccc3[nH]2)cc1	101	99	-13	-17
98	Cn1nnnc1SCC(=O)NC(=O)c1ccccc1Br	104	104	-17	3
99	O=C1SC(c2ccccc2)=N/C1=C/c1ccco1	99	99	8	-9
100	COc1ccc(-c2nnc(SCc3nc(N)nc(Nc4ccccc4C)n3)o2)cc1OC	103	95	1	-7
